# Screening results: PubChem BioAssay, Broad Institute
# YB-1 expression: inhibitors of YB-1 gene expression, primary screen, cell-based, fluorescence; AID 434959, 2010; 30,000 compounds, 0.37% hits; delta delta Cp (YB-1 minus CDIP) (test concentration not listed); U2OS, qRT-PCR YB-1 vs CDIP delta delta Cp, 16 h; hits give high values; zero = DMSO, each unit about twofold;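 active = delta delta Cp rounded down to an integer at or above 3, about 3 SD of DMSO wells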;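 note: higher means less YB-1 transcript or more CDIP transcript relative to DMSO; stock transfer was 100 nL into about 100 µL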
# Shh pathway inh: Hedgehog pathway signaling inhibitors, primary screen, luminescence, Shh-LIGHT2 cells, Gli-luciferase. Shh-LIGHT2 Gli-luciferase reporter, 30 h. inhibition, % (concentration not given with the values). 22,000 compounds, 2.1% hits. AID 2313, 2010;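 active = replicate mean of 65% or more; inconclusive = mean lower but half the replicates past it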;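 note: pathway switched on by Shh-conditioned medium diluted 1 in 25 in low serum; 100 nL library stock added to about 40 µL; 0% = median of neutral wells and 100% = positive control level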
# PD-1 reverse act: activators reversing PD-1 mediated T-cell inhibition, primary screen, luminescence, primary human CD4 T cells, PD-L1 beads | CellTiter-Glo 96 h | activation, % (concentration not given with the values) | 29,000 tested, under 10 active;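 active = replicate mean of 50% or more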;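 note: 0% = median vehicle wells and 100% = positive control; 100 nL library stock added to about 50 µL; numbers are from one replicate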
# MITF inhib: inhibitors of MITF, primary screen, MITF inhibitor project, cell-based, luminescence; TRPM1 promoter luciferase, 24 h; inhibition, % (test concentration not listed); 37,000 compounds, 0.28% hits;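 active = most replicates at 85% or more, or half of them and the mean; inconclusive = half reach 85% but not the mean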;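 note: human melanocyte line stably carrying TRPM1 promoter luciferase reporter; 0% = vehicle wells and 100% = a positive control; the first replicate is given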
# Numbers without * were called inactive; ? = inconclusive; . = no result given. Only part of the results is shown. The share of hits here may be higher or lower than overall.
# Preview (5 entries):
SMILES,YB-1 expression,Shh pathway inh,PD-1 reverse act,MITF inhib
Cc1noc(C)c1S(=O)(=O)Nc1ccc2c(c1)CC(=O)N([C@@H](C)CO)C[C@@H](C)[C@@H](CN(C)C(=O)NC(C)C)O2,-0.063,-17,.,-8
C[C@@H]1CN([C@@H](C)CO)C(=O)c2cc(NC(=O)Nc3ccc(F)cc3)ccc2O[C@H]1CN(C)S(C)(=O)=O,0.025,0,.,-1
C[C@@H]1CN([C@H](C)CO)C(=O)Cc2cc(NC(=O)c3ccncc3)ccc2O[C@H]1CN(C)C,-0.073,-7,0.9,3
C[C@H](CO)N1C[C@H](C)[C@@H](CN(C)Cc2ccc(C(=O)O)cc2)Oc2c(NC(=O)C3CCCCC3)cccc2C1=O,-0.5,-11,0.6,-9
CC(C)N(C(=O)C[n+]1ccc(/C=N/O)cc1)C(C)C,-0.13,-41,-0.6,-12

# All compounds of this part, previewed entries included:
SMILES,YB-1 expression,Shh pathway inh,PD-1 reverse act,MITF inhib
Cc1noc(C)c1S(=O)(=O)Nc1ccc2c(c1)CC(=O)N([C@@H](C)CO)C[C@@H](C)[C@@H](CN(C)C(=O)NC(C)C)O2,-0.063,-17,.,-8
C[C@@H]1CN([C@@H](C)CO)C(=O)c2cc(NC(=O)Nc3ccc(F)cc3)ccc2O[C@H]1CN(C)S(C)(=O)=O,0.025,0,.,-1
C[C@@H]1CN([C@H](C)CO)C(=O)Cc2cc(NC(=O)c3ccncc3)ccc2O[C@H]1CN(C)C,-0.073,-7,0.9,3
C[C@H](CO)N1C[C@H](C)[C@@H](CN(C)Cc2ccc(C(=O)O)cc2)Oc2c(NC(=O)C3CCCCC3)cccc2C1=O,-0.5,-11,0.6,-9
CC(C)N(C(=O)C[n+]1ccc(/C=N/O)cc1)C(C)C,-0.13,-41,-0.6,-12
Cc1ccc(S(=O)(=O)N(C)C[C@@H]2Oc3ccc(NS(=O)(=O)c4cn(C)cn4)cc3C(=O)N([C@H](C)CO)C[C@@H]2C)cc1,-0.11,.,0.6,-3
C[C@H]1CN([C@@H](C)CO)C(=O)Cc2cc(NS(=O)(=O)c3cn(C)cn3)ccc2O[C@@H]1CN(C)C(=O)NC1CCCCC1,-0.0014,-8,-0.1,-11
C[C@@H]1CN([C@H](C)CO)C(=O)c2cc(NS(C)(=O)=O)ccc2O[C@@H]1CN(C)C(=O)Nc1ccc(C(F)(F)F)cc1,-0.11,.,0.8,-9
C[C@@H]1CCCCO[C@@H](CN(C)C(=O)C2CCCCC2)[C@@H](C)CN([C@H](C)CO)C(=O)c2cc(NC(=O)Nc3ccc4c(c3)OCO4)ccc2O1,-0.25,-19,.,12
COc1cc(NC(=O)COc2ccc(Br)cc2C)c(OC)cc1Cl,.,.,0.8,-34
C[C@H](CO)N1C[C@H](C)[C@H](CN(C)Cc2ccc(-c3ccccc3)cc2)Oc2ccc(NC(=O)C3CCCCC3)cc2CC1=O,-0.066,-8,-1.2,3
Cc1ccc(S(=O)(=O)N(C)C[C@@H]2Oc3ccc(NC(=O)Nc4ccc(F)cc4)cc3C(=O)N([C@@H](C)CO)C[C@@H]2C)cc1,0.32,3,.,-41
COc1ccc(CN(C)C[C@H]2Oc3ccc(NC(=O)Nc4c(C)noc4C)cc3C(=O)N([C@H](C)CO)C[C@H]2C)cc1,-0.065,-109,.,0
C[C@@H]1CN([C@H](C)CO)C(=O)c2cc(NC(=O)CCC(F)(F)F)ccc2O[C@H]1CN(C)S(=O)(=O)c1ccc(Cl)cc1,0.13,.,0.4,-5
CSc1ccccc1NC(=O)CN(c1ccc(Br)cc1)S(C)(=O)=O,.,.,0.2,12
Cc1cc(C)nc(NS(=O)(=O)c2ccc(NC(=O)C3COc4ccccc4O3)cc2)n1 (stereo unspecified),.,.,0.9,6
CC(=O)OCOC(=O)CN(CC(=O)OCOC(C)=O)c1ccccc1OCCOc1ccccc1N(CC(=O)OCOC(C)=O)CC(=O)OCOC(C)=O,0.47,18,.,11
C[C@H]1CN([C@@H](C)CO)C(=O)Cc2cc(NC(=O)Nc3ccccc3)ccc2O[C@H]1CN(C)Cc1ccc(C(F)(F)F)cc1,-0.2,-42,.,29
COc1ccc(S(=O)(=O)N(C)C[C@@H]2Oc3ccc(NS(=O)(=O)c4ccc(C)cc4)cc3C(=O)N([C@@H](C)CO)C[C@H]2C)cc1,0.014,18,.,6
Cc1cc(OCC(=O)Nc2ccccc2N2CCN(C)CC2)cc(C)c1Cl,.,.,-4.8,-28
Cc1ccc(S(=O)(=O)N(C)C[C@@H]2Oc3ccc(N(C)C)cc3CC(=O)N([C@H](C)CO)C[C@@H]2C)cc1,-0.076,.,.,-20
C[C@H](CO)N1C[C@H](C)[C@H](CN(C)Cc2ccc3c(c2)OCO3)Oc2ccc(NC(=O)Nc3ccc(C(F)(F)F)cc3)cc2CC1=O,-0.077,-19,-2.7,20
Cc1ccc(OCc2n[nH]c(=S)n2-c2ccccc2)cc1C,-0.078,3,0.2,4
C[C@@H]1CCCCO[C@@H](CN(C)S(=O)(=O)c2cccs2)[C@@H](C)CN([C@H](C)CO)C(=O)c2cc(NC(=O)Nc3cccc4ccccc34)ccc2O1,0.19,8,0.6,6
CO[C@H]1O[C@H](COC(=O)c2ccccc2)[C@@H](O)[C@H](O)[C@H]1OC(=O)c1ccccc1,-0.13,-12,0.5,-7
Cc1ccc(S(=O)(=O)NC(=O)NN2CCCCCC2)cc1,0.00077,31,.,-9
C[C@@H]1CN([C@H](C)CO)C(=O)c2cccc(NS(=O)(=O)c3ccccc3)c2O[C@@H]1CN(C)C(=O)Nc1ccc(C(F)(F)F)cc1,0.73,6,.,27
Cn1c(=O)c2c(nc(SCCCC#N)n2Cc2c(F)cccc2Cl)n(C)c1=O,.,.,-5.4,-6
Cn1nnnc1SCC(=O)Nc1ccc(Oc2ccc(Cl)cc2)cc1,.,.,-2.5,7
C[C@@H]1CN([C@@H](C)CO)C(=O)c2cccc(NS(=O)(=O)c3ccccc3)c2O[C@H]1CN(C)C(=O)NC1CCCCC1,-0.063,8,.,-4
COC(=O)c1cc(OC)c(OC)cc1NC(=O)COc1ccc(C)cc1Br,.,.,-4.1,-25
Cc1ccc([N+](=O)[O-])cc1NC(=O)c1cc(S(=O)(=O)N2CCOCC2)c(Cl)cc1Cl,.,.,-6.6,18
Cc1noc(C)c1NC(=O)Nc1ccc2c(c1)C(=O)N([C@H](C)CO)C[C@@H](C)[C@@H](CN(C)S(=O)(=O)c1ccc(Cl)cc1)O2,0.17,3,0.0,10
O=C(CCn1cnc2ccccc2c1=O)Nc1ccc(S(=O)(=O)N2CCCC2)cc1,.,.,0.2,2
Cn1nc(-c2cccc(C3OCCO3)c2)c(=O)n(C)c1=S,-0.014,26,-0.7,-6
COc1ccc(NC(=O)N(C)C[C@H]2Oc3c(NC(=O)C4CCCCC4)cccc3C(=O)N([C@H](C)CO)C[C@H]2C)cc1,0.13,-10,.,-6
Cc1ccc(S(=O)(=O)N2C(=O)CCC2C(=O)Nc2ccc(Cl)c(Cl)c2)cc1 (stereo unspecified),.,.,0.3,10
CNC[C@H]1Oc2c(NS(=O)(=O)c3cccs3)cccc2C(=O)N([C@H](C)CO)C[C@H]1C,0.23,-2,2.6,-4
C[C@H](CO)N1C[C@H](C)[C@H](CN(C)S(C)(=O)=O)Oc2ccc(NC(=O)Cc3ccccc3)cc2C1=O,0.64,.,0.1,7
Cc1noc(C)c1S(=O)(=O)Nc1ccc2c(c1)C(=O)N([C@H](C)CO)C[C@@H](C)[C@@H](CN(C)S(=O)(=O)c1cn(C)cn1)O2,-0.0068,.,1.9,-9
COc1ccc(C)cc1CN1CCC(CNC(=O)Nc2cc(Cl)ccc2C)CC1,.,.,-12,24
COc1ccc(CN(C)C[C@H]2Oc3ccc(NC(=O)Nc4ccc(C(F)(F)F)cc4)cc3CC(=O)N([C@H](C)CO)C[C@H]2C)cc1,-0.086,12,-3.4,52
C[C@H]1CN([C@@H](C)CO)C(=O)c2cccc(NS(=O)(=O)c3ccc(F)cc3)c2O[C@@H]1CN(C)Cc1ccccc1,0.0028,-11,0.1,0
Cc1ccc(S(=O)(=O)N(C)C[C@H]2Oc3c(NS(=O)(=O)c4ccc(F)cc4)cccc3C(=O)N([C@@H](C)CO)C[C@@H]2C)cc1,-0.22,-7,.,-2
C[C@H](CO)N1C[C@H](C)[C@@H](CN(C)Cc2ccc(C(=O)Nc3ccccc3N)cc2)Oc2c(NS(=O)(=O)c3cccs3)cccc2C1=O,-0.41,.,-0.2,-6
CCCN(CCC)C(=O)c1cnn(-c2ccccc2)c1NC(=O)c1ccccc1,-1.9,-16,1.1,-17
N#Cc1cccc(Cn2cc(C(F)(F)F)ccc2=O)c1,-0.22,-14,1.6,1
COC(=O)c1c(NC(=O)c2c(OC)cccc2OC)sc2c1C(C(=O)OC)CC2 (stereo unspecified),.,.,-1.6,-50
COc1ccc(S(=O)(=O)Nc2ccc3c(c2)C(=O)N([C@H](C)CO)C[C@@H](C)[C@H](CN(C)C(=O)Nc2cccc4ccccc24)O3)cc1,-0.055,-11,.,7
O=C(c1ccc(O)cc1)c1c(O)cc(O)c([C@@H]2O[C@H](CO)[C@@H](O)[C@H](O)[C@H]2O)c1O,0.3,-12,0.8,-16
COc1ccc(NC(=O)C2=C(C)NC(=O)NC2c2cc(OC)ccc2OC)c(OC)c1 (stereo unspecified),.,.,2.0,-35
Cc1noc(C)c1NC(=O)Nc1ccc2c(c1)CC(=O)N([C@H](C)CO)C[C@H](C)[C@H](CN(C)CC1CC1)O2,-0.069,.,0.1,0
CCCCc1c(O)nc(SCC(=O)N2CCCCC2)[nH]c1=O,-0.037,-20,-0.9,-1
Cc1cccc(Cl)c1NC(=S)NC(Cc1ccccc1)c1ccccc1 (stereo unspecified),-0.24,?,-12,23
COc1ccc(NC(=O)Nc2cccc3c2O[C@H](CN(C)C(=O)Nc2ccc(C(F)(F)F)cc2)[C@H](C)CN([C@@H](C)CO)C3=O)cc1,-0.15,3,-1.2,1
N#Cc1c(-c2cccnc2)c2c([nH]c1=O)-c1ccccc1CC2,0.33,2,-0.5,-5
CC(=O)c1cccc(NC(=O)Nc2cccc(S(=O)(=O)N3CCOCC3)c2)c1,.,.,0.4,-21
C[C@@H]1CN([C@@H](C)CO)C(=O)Cc2cc(NS(=O)(=O)c3cccs3)ccc2O[C@@H]1CN(C)S(=O)(=O)c1ccc(F)cc1,0.074,7,-0.4,-12
O=C(Cn1ccc([N+](=O)[O-])n1)N1CCOCC1,.,.,1.2,1
C[C@@H]1CN([C@H](C)CO)C(=O)Cc2cc(NC(=O)C3CC3)ccc2O[C@H]1CN(C)CC1CCCCC1,0.32,-6,0.3,-4
# (listing goes on)
SMILES,YB-1 expression,Shh pathway inh,PD-1 reverse act,MITF inhib
COc1ccc(S(=O)(=O)N(C)C[C@H]2Oc3ccc(NC(=O)CCN4CCOCC4)cc3C(=O)N([C@@H](C)CO)C[C@H]2C)cc1,-0.99,-12,0.3,-3
C[C@H]1CN([C@@H](C)CO)C(=O)Cc2cc(NC(=O)CCCCCC(=O)Nc3ccccc3N)ccc2O[C@H]1CN(C)Cc1ccc(-c2ccccc2)cc1,-0.57,.,-3.2,22
COc1ccc(S(=O)(=O)N(C)C[C@H]2Oc3ccc(NS(=O)(=O)c4ccccc4)cc3CC(=O)N([C@@H](C)CO)C[C@@H]2C)cc1,-0.077,-4,.,1
C[C@@H]1CN([C@H](C)CO)C(=O)c2cccc(NC(=O)CCCCCC(=O)Nc3ccccc3N)c2O[C@@H]1CN(C)C(=O)Nc1ccc2c(c1)OCO2,-0.031,.,-0.2,-7
C[C@H]1CN([C@@H](C)CO)C(=O)Cc2cc(NC(=O)Nc3ccccc3)ccc2O[C@H]1CN(C)S(=O)(=O)c1ccc(Cl)cc1,0.064,11,-0.8,30
C[C@H](CO)N1C[C@H](C)[C@H](CN(C)C)Oc2ccc(NC(=O)Nc3ccc(F)cc3)cc2C1=O,-0.22,13,.,-1
Cc1ccc(S(=O)(=O)N(C)C[C@@H]2Oc3ccc(NC(=O)NC4CCCCC4)cc3C(=O)N([C@H](C)CO)C[C@H]2C)cc1,-0.32,.,-0.5,-6
Cc1ccc(S(=O)(=O)N(C)C[C@@H]2Oc3ccc(NS(=O)(=O)c4c(C)noc4C)cc3CC(=O)N([C@H](C)CO)C[C@@H]2C)cc1,-0.29,19,.,-12
C[C@@H]1CN([C@@H](C)CO)C(=O)c2cccc(NC(=O)Nc3ccc(F)cc3)c2O[C@@H]1CN(C)CC1CCCCC1,0.29,-30,-0.8,-22
COc1cccc(/C=N/O)c1O,-0.085,24,-1.1,-31
C[C@H](CO)N1C[C@H](C)[C@H](CN(C)S(=O)(=O)c2ccccc2)Oc2ccc(NC(=O)Cc3ccccc3)cc2C1=O,-0.057,.,.,5
CN1CCN(c2ncc3c(=S)[nH]c(=S)[nH]c3n2)CC1,-0.37,-5,0.2,4
CCc1ccc(CCC(=O)Nc2cc(C(F)(F)F)ccc2Cl)o1,.,.,-2.9,-13
C[C@H](CO)N1C[C@H](C)[C@@H](CN(C)S(=O)(=O)c2ccc(F)cc2)Oc2ccc(NC(=O)C3CC3)cc2C1=O,0.0036,25,0.1,-12
